# Screens deposited in PubChem by several laboratories.
# MT1-MMP promoter – inhibitors of MT1-MMP promoter transcription, cell-based, luciferase reporter, luminescence (AID 618); MT1-MMP promoter luciferase reporter cells, luminescence; calls from a first round at 10 µM; hits with a dose series show EC50 in µM; hit rate 0.62% among 87,000;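 active = over half of the reporter light lost at 10 µM or EC50 under 50 µM; inactive = the rest and hits that failed the dose series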;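 note: actives suppress MT1-MMP promoter-driven transcription so potencies describe inhibitors; HT1080 fibrosarcoma cells; overnight exposure; toxic or luciferase-blocking compounds were not removed from the actives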
# Hsc70 ATP site – Hsc70 inhibitors, probe displacement, primary screen, biochemical, fluorescence polarization (AID 568). Hsc70 fluorescence polarization, probe displacement; higher % means a stronger effect; strong numbers were not always called active. one-dose displacement, % at 20 µM; IC50 in µM for titrated hits. 83,000 tested, under 10 active;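 active = displacement above 50% without optical interference and an IC50 on retest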;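 note: ATPase domain with a fluorescein-tagged ATP probe; 0% = vehicle and 100% = excess ADP; read after one hour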
# WNV protease inh – WNV NS2B-NS3 proteinase inhibition; P06935; WNV NS2B-NS3 protease, fluorogenic substrate Ex360/Em465; active compounds read low; z-score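 (tested at a level between 10 and 100 µM)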; hit rate 0.18% among 65,000;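 active = z-score at -3 or under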;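 note: score is relative to mean and spread of the compound wells of a plate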
# Target sequence (P06935 1371-1501 limits assumed): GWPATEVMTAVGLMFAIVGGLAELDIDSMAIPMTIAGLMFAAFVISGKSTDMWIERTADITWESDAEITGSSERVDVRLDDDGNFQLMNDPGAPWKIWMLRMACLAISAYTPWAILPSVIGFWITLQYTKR
# Target sequence (P06935 1502-1679 limits assumed): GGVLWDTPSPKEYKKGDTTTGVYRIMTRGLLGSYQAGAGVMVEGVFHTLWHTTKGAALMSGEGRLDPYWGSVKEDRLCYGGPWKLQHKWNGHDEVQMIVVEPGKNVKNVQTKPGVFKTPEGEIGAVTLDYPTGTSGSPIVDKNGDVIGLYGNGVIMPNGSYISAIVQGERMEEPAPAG
# The depositor's hits bear a star; i = inactive; . = no result given. Rows are unselected (roughly 0.87% active in at least one column).
SMILES,MT1-MMP promoter,Hsc70 ATP site,WNV protease inh
CC(C)(C)NS(=O)(=O)c1ccc(NS(C)(=O)=O)cc1,i,0.2%,.
CCc1ccccc1NC(=O)C(Cc1cccc(OC)c1OC)c1nn[nH]n1 (centres undefined),i,-0.2%,0.35
CC(=O)Nc1ccc(S(=O)(=O)N(CCO)Cc2ccccc2)cc1,i,4.3%,.
Cc1nc(NCc2ccccc2)c(C(N)=O)c2c1COC(C)(C)C2,i,1.2%,-0.48
C=CCn1c(SCC(=O)c2cc(C)n(Cc3cccs3)c2C)nnc1-c1ccncc1,i,1.2%,-0.97
CC1CCN(c2ccc(C(=O)O)cc2N)CC1,i,1.8%,0.66
CCOC(=O)/C=C1\SCC(=O)N1CC(=O)NC1CCCCC1,i,4.4%,0.42
COc1cc(Nc2nc(SCC#N)nc3ccccc23)cc(OC)c1OC,i,2.8%,-0.63
CCCCOc1ncnc2c1[nH]c1ccc(OCC)cc12,i,1.7%,.
CCCN1C(=O)C2(C(C(=O)c3ccc(C)o3)=C(O)C(=O)N2CCCN2CCOCC2)c2ccccc21 (centres undefined),i,-7.3%,0.44
Cc1c(/C=C(\C#N)c2nn(-c3ccccc3)c(N)c2C#N)c2ccccc2n1Cc1ccc(F)cc1,i,-16%,.
c1ccc(-n2ncc3c(NCCN4CCCCC4)ncnc32)cc1,i,-0.5%,0.39
Cc1cc2ccccn2c1C(=O)c1nc(N2CCOCC2)ncc1Cl,i,-2.4%,.
COCc1cc(C)nc(N2CCc3ccccc32)c1C#N,i,-0.1%,-1.4
CCCn1c(=O)c2ccccc2n2c(Sc3nnnn3-c3ccccc3)nnc12,i,-2.3%,-0.38
O=C1c2oc3ccccc3c(=O)c2C(c2cccnc2)N1CCCN1CCOCC1 (centres undefined),i,-5.6%,0.24
Cc1ccc2cc(C#N)c(NCCNC(=O)C3CC3)nc2c1C,i,0.0%,-0.5
COCCCNC(=O)C1CCN(S(=O)(=O)c2c(C)noc2/C=C\c2ccc(OC)cc2)CC1,i,-3.6%,0.78
O=C(Nc1cccc(-c2nnc(-c3ccccc3)o2)c1)c1ccco1,i,2.8%,-0.29
CC1(C)Cc2ccccc2-c2nnc(-c3ccc4ccccc4n3)n21,i,-1.2%,.
CC(=O)Nc1cc2c(cc1C(C)=O)OCCO2,i,1.0%,1.1
CCC1=[N+](C)CCn2c(C)ccc21,i,-1.3%,.
O=C(CN(Cc1cccs1)C(=O)CSc1nnc(COc2ccccc2)o1)NC1CCCC1,i,-2.1%,0.52
Cc1onc(-c2ccccc2Cl)c1C(=O)N1CCN(C/C=C/c2ccccc2)CC1,i,2.7%,-1.7
COc1ccccc1C1/C(=C(/O)c2ccc(C)cc2)C(=O)C(=O)N1Cc1ccco1 (centres undefined),i,-7.4%,0.45

# Entries above with a furan ring, fused or not:
SMILES,MT1-MMP promoter,Hsc70 ATP site,WNV protease inh
CCCN1C(=O)C2(C(C(=O)c3ccc(C)o3)=C(O)C(=O)N2CCCN2CCOCC2)c2ccccc21 (centres undefined),i,-7.3%,0.44
O=C(Nc1cccc(-c2nnc(-c3ccccc3)o2)c1)c1ccco1,i,2.8%,-0.29
COc1ccccc1C1/C(=C(/O)c2ccc(C)cc2)C(=O)C(=O)N1Cc1ccco1 (centres undefined),i,-7.4%,0.45

# Going on with the list.
SMILES,MT1-MMP promoter,Hsc70 ATP site,WNV protease inh
CN1CCN(C(=O)CN(Cc2ccccc2)S(C)(=O)=O)CC1,i,-0.9%,.
COc1ccc2c(c1)c1ncn(CCN3CCCC3)c(=O)c1n2C,i,-4.1%,0.07
Cc1nc2ccc(NC(=O)c3ccc(Cl)c(NC(=O)c4cccs4)c3)cc2s1,i,-3.1%,.
Cn1nnnc1SCC(=O)Nc1ccccc1N1CCOCC1,i,2.9%,-1.3
CN(C)c1nccc(Nc2ccccc2)c1C#N,i,-5.4%,-0.86
O=c1cc(C23CC4CC(CC(C4)C2)C3)[nH][nH]1,i,9.9%,-0.75
CCC(C)Nc1ncnc2c1cnn2Cc1ccc(Cl)cc1 (centres undefined),i,3.3%,1.5
CCc1ccc(CN2C(=O)CCC2(C)C(=O)NC2CCCC2)cc1 (centres undefined),i,-7.9%,0.29
CCCCOC(=O)c1ccc(Nc2ncnc3nc[nH]c23)cc1,i,0.0%,1.7
Cn1c2c(c(=O)n(C)c1=O)C(NS(=O)(=O)c1ccc(Cl)cc1)(C(F)(F)F)C(=O)N2 (centres undefined),i,0.6%,.
CCOC(=O)c1c(NC(=O)CSc2nnc(CNc3ccc(F)cc3)o2)sc(C(C)=O)c1C,i,-8.4%,-1
Clc1ccc(-c2nnc3sc(-c4ccc(Br)o4)nn23)c(Cl)c1,i,-4.7%,-0.53
CCOC(=O)N1CCN(c2c(NCCN3CCN(Cc4ccccc4)CC3)c(=O)c2=O)CC1,i,0.0%,-0.07
CCOC(=O)CC(C#N)c1cn(C)c2ccccc12 (centres undefined),i,-11%,-0.06
O=c1oc(-c2ccccc2Cl)nc2ccsc12,i,-2.2%,.
CC(=O)N1CCN(S(=O)(=O)c2cccc(C(=O)Nc3nc4ccccc4[nH]3)c2)CC1,i,-1.2%,-1.3
CCN(CC)CCCN1CC(O)=C(c2nc3ccccc3s2)C1=N,i,1.7%,.
CCc1nc2c(sc3nc4c(cc32)COC(C)(C)C4)c(=O)n1Cc1ccco1,i,-3.0%,0.15
COc1ccc(CNc2ccc3c(c2)nc(C)n3C)cc1,i,-4.7%,0.19
CCOC(=O)c1[nH]c(CSc2nnnn2-c2ccccc2C)c(C(=O)OCC)c1C,i,-32%,-0.92
O=C(c1ccco1)N1CCN(C2CC(=O)N(c3ccccc3)C2=O)CC1 (centres undefined),i,-4.1%,.
COc1ccc(OC(=O)c2ccncc2)cc1,i,-5.3%,0.48
N#Cc1c(NCCN)nc(-c2ccccc2)c2c1CCCC2,i,3.6%,.
COC(=O)c1ccc(C2C(C(=O)OCC(C)C)=C(C)N=C3SCCC(=O)N32)cc1 (centres undefined),i,-0.8%,-0.18
Cc1cc(C)nc(N2CCC(C(=O)NCc3ccccc3)CC2)n1,i,-0.4%,.
# The list goes on.
SMILES,MT1-MMP promoter,Hsc70 ATP site,WNV protease inh
O=C(Nc1nnc(SCc2ccc(Cl)cc2)s1)C1CCCO1 (centres undefined),i,-0.7%,.
Cc1oc(C(C)(C)C)cc1C(=O)Nc1ccc(C(=O)O)cc1,i,-0.9%,-0.63
CCOC(=O)c1sc(=S)n(Cc2ccccc2)c1N,i,-0.7%,-1.1
Clc1ccc(-c2noc(CCCc3ccccc3)n2)cc1,i,-1.2%,.
Cc1ccc(CCNC(=O)NC(C)(C)C)cc1,i,-2.1%,1.9
CCOc1ccc2[nH]c(=O)c(CN(Cc3ccccc3OC)C(=O)c3ccccc3)cc2c1,i,-3.2%,.
CCC(C)(C)n1nnnc1CN(Cc1cc2cc(OC)c(OC)cc2[nH]c1=O)C1CCCC1,i,-8.0%,2.1
CN1C(=O)C2(c3ccccc31)N(C)CC(c1ccccn1)C21SC(=S)N(Cc2ccco2)C1=O (centres undefined),i,-5.6%,1.7
NC(=O)C1(N2CCCCC2)CCN(c2ccc3nnc(-c4ccccc4)n3n2)CC1,i,1.5%,0.24
O=C(CSc1nnc(-c2ccncc2)n1Cc1ccco1)OC1CCCCC1,i,-1.8%,1.2
ON1C(c2ccccc2C(F)(F)F)N(O)[C@H]2CCCC[C@H]21 (some centres undefined),i,-7.2%,1.3
CCOc1cc(C(=O)Nc2ccon2)cc(OCC)c1OCC,i,6.0%,0.55
CCC(OC(=O)C(NC(=O)c1ccccc1)c1ccccc1)C(=O)Nc1cc(C)on1 (centres undefined),i,3.9%,0.07
Cc1cc(C(=O)CSc2nnnn2-c2ccccc2)c(C)n1CC1CCCO1 (centres undefined),i,43%,1.7
Cc1cc(C)c(C)c(S(=O)(=O)NCc2ccc(C(=O)N3CCCCC3)cc2)c1C,i,0.5%,.
Cn1c(=N)n(CC(=O)C(C)(C)C)c2ccccc21,i,-4.8%,-1.3
Clc1ccc(NCn2cncn2)nc1,i,-9.0%,2.5
CCc1ccccc1Nc1nc(N)nc(COC(=O)c2cccn2C)n1,i,6.6%,-0.45
CCCCN1CNC(=S)N(c2cc(C)ccc2C)C1,i,-0.2%,.
CCCCC1(C)NC(=O)N(CC(=O)Nc2ccc(S(=O)(=O)N3CCOCC3)cc2)C1=O (centres undefined),i,0.4%,-0.83
COC(=O)CCn1nnc(-c2cccs2)n1,i,5.7%,-0.5
Nn1c(SCC(=O)N2CCN(S(=O)(=O)c3ccccc3)CC2)nnc1-c1cccs1,i,0.6%,.
COc1ccc(C2SCC(=O)N2c2c(C)n(C)n(-c3ccccc3)c2=O)cc1 (centres undefined),i,4.4%,-0.69
CCOC(=O)c1cnn(-c2nc(C)cc(C)n2)c1N,i,-3.2%,0.67
Cc1ccc(N(CC(=O)NCc2cccnc2)S(C)(=O)=O)cc1C,i,3.8%,0.77

# Quoted from the listing:
# CC1CCN(c2ccc(C(=O)O)cc2N)CC1 in Hsc70 ATP site → 1.8%
# CCOC(=O)c1sc(=S)n(Cc2ccccc2)c1N in WNV protease inh → -1.1
# COc1ccc2c(c1)c1ncn(CCN3CCCC3)c(=O)c1n2C in WNV protease inh → 0.07
# CCN(CC)CCCN1CC(O)=C(c2nc3ccccc3s2)C1=N in Hsc70 ATP site → 1.7%

# (continued)
SMILES,MT1-MMP promoter,Hsc70 ATP site,WNV protease inh
COc1cccc(C(=O)N2CCN(S(C)(=O)=O)CC2)c1,i,-6.3%,.
COCc1cc(C)nc(SCC(=O)Nc2cccc(C)c2)c1C#N,i,5.6%,1.4
CCOC(=O)c1csc(NC(=O)CSc2nnnn2-c2ccc(OCC)cc2)n1,i,2.2%,2.3
O=C(COC(=O)c1ccc[nH]c1=O)NCC1CCCO1 (centres undefined),i,4.1%,0.87
CCCCCN(C(=O)NC(=O)Nc1ccccc1C)S(C)(=O)=O,i,2.7%,0.15
Cc1ccc(S(=O)(=O)NCCC(=O)NCc2ccc3c(c2)OCO3)cc1C,i,11%,1
Cc1cc2c(OCC(O)CNC(C)(C)C)cccc2[nH]1 (centres undefined),i,1.6%,.
Clc1cccc(Cl)c1-c1nnc2cccc(Cl)n12,i,4.2%,.
O=C(CCN1C(=O)C2C3C=CC(C3)C2C1=O)Nc1ccc(F)cc1 (centres undefined),i,-2.7%,0.03
CC(C)=CC(=O)NCCc1ccccc1,i,0.0%,-0.07
CC(=O)NC(C)C12CC3CC(CC(CC(=O)O)(C3)C1)C2 (centres undefined),i,2.8%,1.7
N#CC1=C(N)OC2=C(C(=O)CCC2)C1c1ccccc1 (centres undefined),i,-1.3%,-0.39
COc1ccccc1NS(=O)(=O)c1ccccc1C#N,i,7.6%,-0.16
CCOC(=O)c1sc(C)c2c1NC(C)(c1cccs1)NC2=O (centres undefined),i,-0.1%,0.67
COc1ccc(Cl)cc1NC(=O)C1CCCN(c2cc(C)nc3ncnn23)C1 (centres undefined),i,1.0%,-0.35
COc1ccc(OC)c(CN2C(=O)CCC2(C)C(=O)NC2CCCCCC2)c1 (centres undefined),i,1.9%,0.25
COC(=O)c1cccc(NC(=O)CSc2nnc(COc3cccc(C)c3)n2C)c1,i,-2.6%,-1.2
COc1ccc(-c2cc(C(F)(F)F)nc(SCC(=O)N3CCOCC3)n2)cc1OC,i,1.1%,0.31
CCn1c(=O)cc(SCC(=O)NCc2ccco2)c2ccccc21,i,-1.6%,-0.07
NC(=O)C1(N2CCCCC2)CCN(C(=O)c2cccn3c(=O)c4cc(Cl)ccc4nc23)CC1,i,-8.5%,-0.29
CCOc1ccc(-n2nnc3c(=O)n(CC(=O)N4CCCc5ccccc54)cnc32)cc1,i,-1.3%,-1
COc1ccc(S(=O)(=O)Cc2ccc(C(=O)N3CCCC3)o2)cc1,i,-1.9%,0.65
Clc1cccc(-c2cc3nc4c(c(N5CCN(c6cnccn6)CC5)n3n2)CCCC4)c1,i,-2.4%,.
COc1cc(NS(=O)(=O)c2ccc(Br)cc2)c(OC)cc1NC(=O)c1ccco1,i,-9.4%,0.91
Cc1ccc(OCCCC(=O)Nc2ccc(N3CCOCC3)cc2)c(C)c1,i,-2.5%,0.24

# Whole records, looked up by structure.
# O=C(CCN1C(=O)C2C3C=CC(C3)C2C1=O)Nc1ccc(F)cc1 (centres undefined) is listed with MT1-MMP promoter: i; Hsc70 ATP site: -2.7%; WNV protease inh: 0.03
# Cc1ccc(S(=O)(=O)NCCC(=O)NCc2ccc3c(c2)OCO3)cc1C is listed with MT1-MMP promoter: i; Hsc70 ATP site: 11%; WNV protease inh: 1

# Next part:
SMILES,MT1-MMP promoter,Hsc70 ATP site,WNV protease inh
CCSc1nc2c(c(=O)[nH]1)C(c1cccnc1)C(C(=O)OC(C)C)=C(C)N2 (centres undefined),i,0.2%,0.87
CCn1c(C(C)NC(=O)c2ccc(OC)c(OC)c2)nc2ccccc21 (centres undefined),i,-1.0%,-0.69
Cc1cc2cc(CCNC(=O)CC(C)C)c(=O)[nH]c2cc1C,i,2.4%,0.97
CN(C)CCCN1C(=O)C(=O)/C(=C(/O)c2ccc3c(c2)OCO3)C1c1ccccn1 (centres undefined),i,-2.3%,0.09
O=C(CN1C(=O)c2ccccc2C1=O)Nc1cccnc1,i,0.5%,0.91
Cc1ccc(CCNC(=O)C2CCC(=O)N2C(C)C)cc1 (centres undefined),i,3.1%,0.66
Cc1oc(-c2cccc(Cl)c2)[n+]([O-])c1C,i,-0.4%,1.6
